Source: PubChem BioAssay (several laboratories)
PABP polyA inh: PABP poly(A) RNA binding inhibitors, primary screen, biochemical, fluorescence polarization, uHTS | 1% of 290,000 active | inhibition, % at 35 µM | Polyadenylate-binding protein 1 (Homo sapiens), P11940;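 active = 50% or more with normal probe brightness, or confirmed in later tests; about a fifth of its hits are not listed in these tables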;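 also: calls also rest on retests at 20 µM and on dose response follow-up; controls were probe without protein and protein plus probe with vehicle; some compounds called inactive have numbers as strong as hits; many hits fall short of the cut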
Target sequence (P11940 whole entry, looked up): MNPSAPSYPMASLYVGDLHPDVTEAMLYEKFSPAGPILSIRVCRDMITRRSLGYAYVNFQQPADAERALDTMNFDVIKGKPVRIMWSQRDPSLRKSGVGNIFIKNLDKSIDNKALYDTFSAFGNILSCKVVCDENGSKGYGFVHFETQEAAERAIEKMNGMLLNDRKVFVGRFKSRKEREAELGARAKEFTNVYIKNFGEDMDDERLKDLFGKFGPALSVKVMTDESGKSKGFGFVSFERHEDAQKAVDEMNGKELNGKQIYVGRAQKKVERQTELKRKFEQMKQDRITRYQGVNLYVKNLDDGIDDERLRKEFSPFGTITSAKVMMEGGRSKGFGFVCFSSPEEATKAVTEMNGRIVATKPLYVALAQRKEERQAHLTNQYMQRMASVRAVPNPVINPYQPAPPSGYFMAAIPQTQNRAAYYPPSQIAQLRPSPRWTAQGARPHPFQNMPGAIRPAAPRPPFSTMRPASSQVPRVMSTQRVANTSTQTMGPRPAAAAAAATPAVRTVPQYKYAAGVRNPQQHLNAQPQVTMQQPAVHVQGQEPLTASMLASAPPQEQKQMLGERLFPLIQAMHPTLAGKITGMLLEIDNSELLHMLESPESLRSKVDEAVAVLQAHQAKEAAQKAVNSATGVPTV
MT1-MMP act inh: blockers of MT1-MMP proenzyme processing, primary screen, HT1080 RFP-PRO-GFP cells, GFP/RFP fluorescence | AID 651647, 2012 | 0.061% of 360,000 active | GFP/RFP ratio fluorescence, overnight; percent of plate control window, DMSO zero | GFP/RFP ratio change, % at 20 µM;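 active = GFP/RFP ratio change of at least 30% with cell ATP level not reduced by more than half and red fluorescence within 50% of control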; also: strong numbers were not always called active
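Read-out: GFP/RFP fluorescence ratio; Test system: RFP-PRO-GFP reporter HT1080 cells; Compound dosing: single-point 20 µM compound, 1% DMSO; Times: overnight compound exposure at 37 °C.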
Yeast UUG start: modulators of yeast start codon fidelity, primary screen, whole organism, S. cerevisiae, single point, plate reader; S. cerevisiae UUG-firefly luciferase reporter, luminescence/redox ratio; activity score, % at 18.7 µM; 0.13% of 350,000 active;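 active = replicate mean at a twofold rise or more, about +100% in these data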;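 also: firefly luciferase made from a UUG start codon reports start codon fidelity; reporter light over untreated wells divided by growth signal over untreated wells; some hits fall short of that in this replicate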
CSC inhib: cancer stem cell viability inhibitors, primary screen, luminescence; cancer stem cell-like cells viability; inhibition, % at 7.5 µM; 1.1% of 300,000 active;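 active = mean at 75% or more and at least half the replicates too; tested in HMLE shEcad cells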;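 also: 0% = median of negative and 100% = median of positive control wells; the first replicate is given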
HIV Env fusion: inhibitors of HIV-1 Env-driven cell-cell fusion, primary screen, HeLa-JRFL effector, CEM21 target cells, luciferase; inhibition, % at 12.3 µM; 1.1% of 360,000 active;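 active = mean replicate inhibition score of at least 50 and every replicate individually at or above 50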;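 also: 0% = plate neutral controls and 100% = maraviroc near 300 nM; one replicate is shown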
Rce1 inh: yeast Rce1p protease inhibitors, primary screen, biochemical, fluorescence, cell-free homogeneous | CAAX prenyl protease 2 (Saccharomyces cerevisiae (strain ATCC 204508 / S288c)), Q03530 | yeast membranes, quenched prenylated peptide cleavage fluorescence | calls only | 0.27% of 290,000 active | AID 2563, 2010;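 active = fall in fluorescence gain of 50% or more versus controls, with final raw signal at or below 3038400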;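 also: plate controls were neutral control wells for no effect and wells lacking membranes for full effect; tested at 10 µM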
Target sequence (Q03530 whole entry, looked up): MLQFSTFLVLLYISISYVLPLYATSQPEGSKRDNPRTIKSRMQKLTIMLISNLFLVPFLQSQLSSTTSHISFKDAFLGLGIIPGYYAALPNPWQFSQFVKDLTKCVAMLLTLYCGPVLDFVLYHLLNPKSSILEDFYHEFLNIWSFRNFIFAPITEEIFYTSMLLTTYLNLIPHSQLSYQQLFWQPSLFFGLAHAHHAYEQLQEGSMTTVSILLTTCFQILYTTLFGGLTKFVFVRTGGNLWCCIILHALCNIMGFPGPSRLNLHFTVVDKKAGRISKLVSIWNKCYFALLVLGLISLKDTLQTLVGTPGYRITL
eIF4H FP inh: human eIF4H binding inhibitors, primary screen, translation initiation inhibitor project, biochemical, uHTS, fluorescence polarization | Eukaryotic translation initiation factor 4H (Homo sapiens), Q15056 | AID 2012, 2009 | inhibition, % at 35 µM | 0.94% of 290,000 active | eIF4H fluorescence polarization binding assay;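 active = 50% or more with normal probe brightness, or confirmed in later tests; about a fifth of its hits are not listed in these tables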;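 also: calls also rest on retests at 20 µM and on dose response follow-up; 0% = protein and probe with vehicle and 100% = probe without protein; strong numbers were not always called active; many hits fall short of the cut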
eIF4H FP inh retest: further read-out of eIF4H FP inh, marked with its call; inhibition, %; compound at 20 µM; confirmation average;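 mean of two retest wells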
PABP polyA inh retest: also measured in PABP polyA inh; calls as there; inhibition, %; compound at 20 µM; confirmation repeats;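 mean of two retest wells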
MT1-MMP act inh RFP: also measured in MT1-MMP act inh; calls as there; RFP signal change, %; measured here: RFP expression control read;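 0 = vehicle wells; hits needed this value within 50% of zero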
* marks the source's active call; other numbers are inactive results. Not all compounds are listed, so the mix of outcomes need not match the whole.

Cc1ccc(NC(=O)c2cc3ccccc3oc2=O)cc1S(=O)(=O)N(C)C was read as PABP polyA inh 64*, MT1-MMP act inh -2, CSC inhib -1, Rce1 inh inactive, eIF4H FP inh 0, eIF4H FP inh retest 20, PABP polyA inh retest 60* and MT1-MMP act inh RFP -1.
For CCOC(=O)C1CCN(S(=O)(=O)Cc2ccccc2)C1=O (stereo not given) the results were PABP polyA inh 17, MT1-MMP act inh 3, Rce1 inh inactive, eIF4H FP inh -8 and MT1-MMP act inh RFP -2.
O=C(Nc1ccc(F)cc1)c1cc2c(s1)CCCC2 was read as PABP polyA inh 3, MT1-MMP act inh -6, Yeast UUG start -11, CSC inhib 9, HIV Env fusion -138, Rce1 inh inactive, eIF4H FP inh 1 and MT1-MMP act inh RFP -8.
`N#Cc1cc2c([nH]c1=S)CCCCCC2` gave PABP polyA inh 7, MT1-MMP act inh 1, Yeast UUG start -21, CSC inhib -15, Rce1 inh inactive, eIF4H FP inh -5 and MT1-MMP act inh RFP 3.
Cc1ccc(S(=O)(=O)N2CCCN(C(=O)OC(C)(C)C)CC2)cc1 was read as PABP polyA inh 0, MT1-MMP act inh 0, Yeast UUG start -3, CSC inhib 7, HIV Env fusion 5, Rce1 inh inactive, eIF4H FP inh -5 and MT1-MMP act inh RFP -1.
For Cn1cnnc1SC(C(=O)Nc1cccc(C(F)(F)F)c1)c1ccccc1 (stereo not given) the results were PABP polyA inh 18, MT1-MMP act inh -3, CSC inhib -5, Rce1 inh inactive, eIF4H FP inh 10 and MT1-MMP act inh RFP 0.
For COc1cc(CNCCO)cc(Cl)c1OCc1ccccc1Cl the results were PABP polyA inh -2, MT1-MMP act inh -1, CSC inhib 15, HIV Env fusion -4, Rce1 inh inactive, eIF4H FP inh -2 and MT1-MMP act inh RFP -3.
Screening Cc1ccc(C=NNC(=O)c2cc(-c3cccnc3)nc3ccccc23)o1 returned MT1-MMP act inh -11, Yeast UUG start -17, CSC inhib 38, HIV Env fusion -19 and MT1-MMP act inh RFP -13.
COCCCNC(=O)c1ccc(N(C)S(C)(=O)=O)cc1 was read as PABP polyA inh 11, MT1-MMP act inh 2, Yeast UUG start -12, CSC inhib -8, HIV Env fusion 8, Rce1 inh inactive, eIF4H FP inh -8 and MT1-MMP act inh RFP 4.
`COC(=O)C(NC(=O)c1ccccc1)=C(C)C` gave PABP polyA inh -6, MT1-MMP act inh 7, Yeast UUG start -16, CSC inhib -3, Rce1 inh inactive, eIF4H FP inh 6 and MT1-MMP act inh RFP 6.
CC(=O)Nc1ccc(NC(=O)COC(=O)C2(c3ccc(Cl)cc3)CCCC2)cc1 was read as PABP polyA inh -3, MT1-MMP act inh -2, CSC inhib 0, Rce1 inh inactive, eIF4H FP inh 14 and MT1-MMP act inh RFP -14.
`COc1ccc(CCn2c(-c3ccc(OC)cc3)nc3c(c(=O)c4ccccc4n3C)c2=O)cc1` gave PABP polyA inh -2, MT1-MMP act inh -8, CSC inhib -18, HIV Env fusion 12, Rce1 inh inactive, eIF4H FP inh 7 and MT1-MMP act inh RFP -10.

Overlap with the part before: two compounds, then new ones.
CC(=O)Nc1ccc(NC(=O)COC(=O)C2(c3ccc(Cl)cc3)CCCC2)cc1 was read as PABP polyA inh -3, MT1-MMP act inh -2, CSC inhib 0, Rce1 inh inactive, eIF4H FP inh 14 and MT1-MMP act inh RFP -14.
`COc1ccc(CCn2c(-c3ccc(OC)cc3)nc3c(c(=O)c4ccccc4n3C)c2=O)cc1` gave PABP polyA inh -2, MT1-MMP act inh -8, CSC inhib -18, HIV Env fusion 12, Rce1 inh inactive, eIF4H FP inh 7 and MT1-MMP act inh RFP -10.
`COCCN(C(=O)c1ccccc1F)c1nc(-c2ccc(OC)cc2)cs1` gave PABP polyA inh 6, MT1-MMP act inh -4, Yeast UUG start -15, CSC inhib 6, HIV Env fusion -1, Rce1 inh inactive, eIF4H FP inh 13 and MT1-MMP act inh RFP -8.
`CCn1c(SCC(=O)Nc2nc(-c3ccc(C)cc3)cs2)nnc1-c1ccccc1O` gave PABP polyA inh -18, MT1-MMP act inh -1, Yeast UUG start -25, Rce1 inh inactive, eIF4H FP inh 3 and MT1-MMP act inh RFP -27.
Screening Cc1nc(SCC(=O)NC(=O)NC(C)C)nc(C)c1C returned PABP polyA inh -10, MT1-MMP act inh -2, CSC inhib 13, HIV Env fusion -8, Rce1 inh inactive, eIF4H FP inh -4 and MT1-MMP act inh RFP -4.
CCOc1ccc(NC(=O)CCNC(=O)c2ccc(Br)cc2)cc1 was read as PABP polyA inh 0, MT1-MMP act inh 4, Yeast UUG start -11, CSC inhib -12, HIV Env fusion -8, Rce1 inh inactive, eIF4H FP inh -4 and MT1-MMP act inh RFP 1.
For CN1CCC(=NNc2ncnc3sc4c(c23)CCCC4)CC1 the results were PABP polyA inh 6, MT1-MMP act inh -5, Yeast UUG start -7, CSC inhib 5, HIV Env fusion -14, Rce1 inh inactive, eIF4H FP inh 8 and MT1-MMP act inh RFP -1.
Screening CCOCCCNC(=O)Cn1cc2c(n1)-c1c(oc(C(=O)N3CCCC3)c1C)CC2 returned MT1-MMP act inh 3, Yeast UUG start -11, HIV Env fusion -9 and MT1-MMP act inh RFP -1.
`COc1ccc(NC(=O)Cn2nnc(C(=O)NCc3ccco3)c2N)cc1` gave PABP polyA inh 2, MT1-MMP act inh -3, Yeast UUG start -16, CSC inhib -13, HIV Env fusion -2, Rce1 inh inactive, eIF4H FP inh -16 and MT1-MMP act inh RFP 2.
O=C(/C=C/c1cccc(Cl)c1Cl)OCC(=O)N1CCOCC1 was read as MT1-MMP act inh 0, Yeast UUG start -9, HIV Env fusion 8 and MT1-MMP act inh RFP -4.
`O=C(O)c1ccc2c(c1)S(=O)(=O)c1cc(N3CCN(c4cnccn4)CC3)ccc1C2=O` gave MT1-MMP act inh -3, Yeast UUG start -12, HIV Env fusion 7 and MT1-MMP act inh RFP -2.
`CN(c1ccc(OCc2nnc(-c3ccccc3)o2)cc1)S(=O)(=O)c1ccccc1` gave PABP polyA inh -6, MT1-MMP act inh 5, Yeast UUG start 38, CSC inhib -11, Rce1 inh inactive, eIF4H FP inh 9 and MT1-MMP act inh RFP -1.
For COC(=O)CC1NCCc2cc(OC)c(OC)cc21 (stereo not given) the results were PABP polyA inh -8, MT1-MMP act inh -1, HIV Env fusion 19, Rce1 inh inactive, eIF4H FP inh -10 and MT1-MMP act inh RFP 3.
Screening O=C(CCN1CCCCO1)N1CCCC(Nc2ccc(F)cc2)C1 (stereo not given) returned PABP polyA inh -6, MT1-MMP act inh 0, Yeast UUG start -15, CSC inhib -9, HIV Env fusion 5, Rce1 inh inactive, eIF4H FP inh -10 and MT1-MMP act inh RFP 2.
Screening O=S(=O)(c1ccc(NC(=S)N/N=C/c2ccc(N3CCOCC3)cc2)cc1)N1CCOCC1 returned PABP polyA inh 3, MT1-MMP act inh 2, CSC inhib -1, HIV Env fusion 8, Rce1 inh inactive, eIF4H FP inh -2 and MT1-MMP act inh RFP -3.
`Cc1cccc(N2CCN(C(=O)CCn3c(=O)[nH]c4ccccc4c3=O)CC2)c1C` gave PABP polyA inh 2, MT1-MMP act inh 0, CSC inhib -24, HIV Env fusion 4, Rce1 inh inactive, eIF4H FP inh -10 and MT1-MMP act inh RFP -4.
CN1CCN(C(=O)c2cnn(-c3ccccc3)c2NC(=O)c2ccccc2Cl)CC1 was read as PABP polyA inh -3, MT1-MMP act inh 4, Yeast UUG start -13, CSC inhib -9, HIV Env fusion -7, Rce1 inh inactive, eIF4H FP inh -2 and MT1-MMP act inh RFP 7.
For CCC[C@@H](CN1CCC[C@H]1CN1C(N)=NC[C@@H]1Cc1ccccc1)N1C[C@@H](Cc2ccccc2)N(CCc2ccc(Cl)c(Cl)c2)C1=N the results were MT1-MMP act inh -2, Yeast UUG start 16, CSC inhib 11, HIV Env fusion 0 and MT1-MMP act inh RFP 1.
Screening CO/N=C\c1cc(C(=O)c2ccc(Cl)cc2Cl)cn1C returned PABP polyA inh -5, MT1-MMP act inh 2, CSC inhib -9, HIV Env fusion -15, Rce1 inh inactive, eIF4H FP inh -17 and MT1-MMP act inh RFP 0.
Screening S=C(Nc1ccccc1)Nc1ccc(OCc2ccc(Cl)cc2Cl)cc1 returned PABP polyA inh -8, MT1-MMP act inh 11, Yeast UUG start -25, HIV Env fusion 103*, Rce1 inh inactive, eIF4H FP inh -5 and MT1-MMP act inh RFP -3.
`CCOC(=O)C1CCN(C(=O)c2cc(COc3ccc(OC)c4ccccc34)on2)CC1` gave PABP polyA inh 2, MT1-MMP act inh 0, Yeast UUG start -13, CSC inhib -11, HIV Env fusion -56, Rce1 inh inactive, eIF4H FP inh 3 and MT1-MMP act inh RFP 4.
`O=C(CSC1CCCCC1)Nc1nccs1` gave PABP polyA inh -7, MT1-MMP act inh 0, Yeast UUG start -10, CSC inhib 10, HIV Env fusion -105, Rce1 inh inactive, eIF4H FP inh -4 and MT1-MMP act inh RFP -2.
`NC(=S)N/N=C/c1coc2cc(Cl)ccc2c1=O` gave PABP polyA inh 5, MT1-MMP act inh -7, Yeast UUG start -18, CSC inhib 5, HIV Env fusion -275, Rce1 inh inactive, eIF4H FP inh 5 and MT1-MMP act inh RFP 0.
Screening N/C(=N\OC(=O)c1ccccc1)c1ccncc1 returned PABP polyA inh 41, MT1-MMP act inh 1, CSC inhib 2, HIV Env fusion -23, Rce1 inh inactive, eIF4H FP inh 8 and MT1-MMP act inh RFP 4.
Screening O=C(Nc1nnc(SCc2c(Cl)cccc2Cl)s1)c1ccc2ncsc2c1 returned PABP polyA inh 5, CSC inhib 17, Rce1 inh inactive and eIF4H FP inh 8.
CC(=O)C(N=Nc1ccccc1)(Sc1nnc(-c2ccccc2)n1-c1ccccc1)C(C)=O was read as PABP polyA inh -2, MT1-MMP act inh -15, Yeast UUG start -11, CSC inhib 30, HIV Env fusion -129, Rce1 inh inactive, eIF4H FP inh -2 and MT1-MMP act inh RFP -11.
For CCN(CCn1cccn1)C(=O)c1ccc2nc(Cc3ccc(OC)cc3)oc2c1 the results were PABP polyA inh 4, MT1-MMP act inh 0, Yeast UUG start -1, CSC inhib -9, HIV Env fusion -11, Rce1 inh inactive, eIF4H FP inh -11 and MT1-MMP act inh RFP -4.
Cc1ccc(Cl)cc1NC(=O)c1ccc(Cn2cc(Cl)cn2)cc1 was read as PABP polyA inh -6, MT1-MMP act inh 1, CSC inhib 100*, HIV Env fusion 10, Rce1 inh inactive, eIF4H FP inh -1 and MT1-MMP act inh RFP -9.
`COc1cccc(-c2noc(CCC(=O)NCCc3ccccc3)n2)c1` gave PABP polyA inh -5, MT1-MMP act inh 4, Yeast UUG start -2, CSC inhib -5, HIV Env fusion 29, Rce1 inh inactive, eIF4H FP inh 1 and MT1-MMP act inh RFP 4.
Screening Cc1ccc(S(=O)(=O)/N=C(\Sc2ccccc2)c2ccccc2)cc1 returned PABP polyA inh 8, MT1-MMP act inh 2, Yeast UUG start 1, CSC inhib -1, Rce1 inh inactive, eIF4H FP inh -6 and MT1-MMP act inh RFP 2.
`COc1cccc(Cn2nnc(C(=O)NCCc3ccc(Cl)cc3)c2N)c1` gave PABP polyA inh -13, MT1-MMP act inh 4, Yeast UUG start -23, CSC inhib 11, HIV Env fusion -12, Rce1 inh inactive, eIF4H FP inh 0 and MT1-MMP act inh RFP -8.
`COc1ccc(CC(=O)NCc2nnc(SCC(=O)Nc3ncc(C)s3)n2C)cc1` gave PABP polyA inh -16, MT1-MMP act inh -5, CSC inhib 1, HIV Env fusion 9, Rce1 inh inactive, eIF4H FP inh 2 and MT1-MMP act inh RFP -2.
